Assay outcomes from PubChem BioAssay.
GIV Gai3 FP: GIV-Galpha-i interaction inhibition; AID 1224905; percent of control (FP), % (concentration not given with the values); 210,000 compounds, 0.42% hits; P08753; Galpha-i3/FITC-GIV peptide fluorescence polarization, 90 min; hits give low values; scaled: aluminum fluoride 0%, vehicle 100%;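 active means replicate mean at 85% of control or lower, very high polarization wells dropped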;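 further: wells of about 15 µL received 100 nL stock; the first replicate is given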
Target sequence (P08753 whole entry, looked up): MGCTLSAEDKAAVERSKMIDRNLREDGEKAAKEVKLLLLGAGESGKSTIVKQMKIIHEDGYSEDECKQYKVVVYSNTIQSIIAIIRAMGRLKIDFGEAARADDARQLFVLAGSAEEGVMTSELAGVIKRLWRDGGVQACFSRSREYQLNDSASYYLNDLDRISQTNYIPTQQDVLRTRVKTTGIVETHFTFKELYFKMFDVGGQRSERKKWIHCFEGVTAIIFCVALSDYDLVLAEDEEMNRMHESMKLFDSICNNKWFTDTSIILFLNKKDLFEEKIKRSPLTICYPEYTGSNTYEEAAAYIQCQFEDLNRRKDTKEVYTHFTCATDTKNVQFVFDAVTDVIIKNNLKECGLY
Sa growth inh: inhibitors of Staphylococcus aureus growth at 42 °C. S. aureus RN4220 growth, OD600, 20 h; hits give low values. relative growth, % (concentration not given with the values). 170,000 compounds, 0.53% hits. AID 720641;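 active means growth at 42 °C up to 50% and 20 or more points under that at 30 °C, or under 10% at both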;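 further: 300 nL library stock went into each well; scaled to the means of positive and negative controls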
HCMV UL50-53 inh: inhibitors of HCMV UL50-UL53 nuclear egress complex interaction; HTRF UL50-UL53 interaction, normalized percent inhibition; inhibition, % (no concentration beside the values); 190,000 compounds, 0.15% hits;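 active means both replicates at 50% or more, plus weaker picks with an unusually low signal ratio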;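 further: stock transfer was 100 nL into about 20 µL; 0% = negative control wells and 100% = wells with untagged competitor protein; inactives centre near -12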
Sa growth inh second temp: also measured in Sa growth inh; calls as there; relative growth, %; measured here: growth at 30 °C;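 optical density after 20 h as mean of two plates; 100% = untreated growth and lower means inhibition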
Starred values were filed as active, the others as inactive; . = no result given; & = joins results of further samples.

SMILES	GIV Gai3 FP	Sa growth inh	Sa growth inh second temp	HCMV UL50-53 inh
Cc1ccc(CN(C)C(=O)C2CCCCC2)o1	.	88	91	0
O=C(O)C1CCN(c2nccs2)CC1	.	101	92	-8
CN=C(Nc1ccnn1C1CCCCC1)c1ccccc1	.	77	96	-26
O=c1c2ccccc2n2c(=O)n(Cc3cccc(F)c3)nc2n1Cc1ccc(F)cc1	106	.	.	3
COc1c(C(=O)NC(=S)NCc2ccco2)cc2ccccc2c1Br	106	117	95	-12
CN1C(=S)N(C2CCCCC2)C(=O)/C1=C/c1ccccc1O	99	24	5	.
Cc1ccc2nc(COC(=O)/C=C/c3c(C)nn(C4CCS(=O)(=O)C4)c3Cl)cc(=O)n2c1 (stereo unspecified)	.	109	88	-10
CC(C)CN(C(=O)Cn1nnnc1N)C1(C(=O)Nc2ccccc2)CCCCC1	98	108	80	-18
COc1ccc(NC(=O)c2ccc(CN3CCc4ccccc4C3)cc2)c(OC)c1	97	.	.	-20
O=C(O)CCc1ccc(-c2ccc(F)cc2)n1Cc1ccco1	107	89	88	-2
CC1=C(C(=O)OC2CCCC2)C(c2coc3ccc(C)cc3c2=O)C2=C(CCCC2=O)N1 (stereo unspecified)	102	.	.	-21
Cc1cc(Nc2ccccc2)n2cnnc2n1	114	92	86	.
CCOC(=O)CSC1=N/C(=C/c2ccsc2)C(=O)N1c1ccccc1	103	108	86	.
Cc1cc(C)n(-c2nc(C)c(C)c(=O)n2CC(=O)Nc2cccc([N+](=O)[O-])c2)n1	97	108	83	.
CCn1c(C(=O)NCc2ccccc2)cc2sc(Cl)cc21	105	85	94	10
CCc1ccccc1NC(=O)CCS(=O)(=O)c1ccc2c(c1)NC(=O)CS2	113	.	.	-4
Fc1ccc(CN2CCCN(c3ccc4c(c3)OCCO4)CC2)cc1	104	98	99	3
Cc1nn(-c2ccccc2Cl)c(Cl)c1C=Nc1cc(Cl)ccc1C#N	.	99	80	-15
N#C/C(=C\NCc1cc(C(F)(F)F)cc(C(F)(F)F)c1)S(=O)(=O)Cc1ccco1	101	93	95	23
COc1ccc(C(c2ccc3cccnc3c2O)N2CCCC2)cc1 (stereo unspecified)	.	96	37	-17
CC1CCc2c(sc(NC(=O)CCCOc3ccc(C(C)(C)C)cc3)c2C(N)=O)C1 (stereo unspecified)	102	100	88	-18
CCCCn1nc(NC(=O)C(C)C)c2cc3cc(OC)ccc3nc21	107	98	102	-29
CCCN(C(=O)c1cc2c(=O)oc3ccccc3c2s1)c1ccc(CC)cc1	107	95	93	-31
CC1=CC(C)C(C2OC(C)CC(C)(C)O2)C(C)C1 (stereo unspecified)	98	87	85	-21
COc1ccc(CNC(=O)c2ccc(CSc3nc4ccncc4n3Cc3cccc(C)c3)cc2)cc1	103	.	.	-28

Laid out differently: entries from further up.
The line under a structure holds: GIV Gai3 FP | Sa growth inh | Sa growth inh second temp | HCMV UL50-53 inh
> Cc1ccc(CN(C)C(=O)C2CCCCC2)o1
    . | 88 | 91 | 0
> O=C(O)C1CCN(c2nccs2)CC1
    . | 101 | 92 | -8
> CN=C(Nc1ccnn1C1CCCCC1)c1ccccc1
    . | 77 | 96 | -26
> O=c1c2ccccc2n2c(=O)n(Cc3cccc(F)c3)nc2n1Cc1ccc(F)cc1
    106 | . | . | 3
> COc1c(C(=O)NC(=S)NCc2ccco2)cc2ccccc2c1Br
    106 | 117 | 95 | -12
> CN1C(=S)N(C2CCCCC2)C(=O)/C1=C/c1ccccc1O
    99 | 24 | 5 | .
> Cc1ccc2nc(COC(=O)/C=C/c3c(C)nn(C4CCS(=O)(=O)C4)c3Cl)cc(=O)n2c1 (stereo unspecified)
    . | 109 | 88 | -10
> CC(C)CN(C(=O)Cn1nnnc1N)C1(C(=O)Nc2ccccc2)CCCCC1
    98 | 108 | 80 | -18
> COc1ccc(NC(=O)c2ccc(CN3CCc4ccccc4C3)cc2)c(OC)c1
    97 | . | . | -20
> O=C(O)CCc1ccc(-c2ccc(F)cc2)n1Cc1ccco1
    107 | 89 | 88 | -2
> CC1=C(C(=O)OC2CCCC2)C(c2coc3ccc(C)cc3c2=O)C2=C(CCCC2=O)N1 (stereo unspecified)
    102 | . | . | -21
> Cc1cc(Nc2ccccc2)n2cnnc2n1
    114 | 92 | 86 | .
> CCOC(=O)CSC1=N/C(=C/c2ccsc2)C(=O)N1c1ccccc1
    103 | 108 | 86 | .
> Cc1cc(C)n(-c2nc(C)c(C)c(=O)n2CC(=O)Nc2cccc([N+](=O)[O-])c2)n1
    97 | 108 | 83 | .
> CCn1c(C(=O)NCc2ccccc2)cc2sc(Cl)cc21
    105 | 85 | 94 | 10
> CCc1ccccc1NC(=O)CCS(=O)(=O)c1ccc2c(c1)NC(=O)CS2
    113 | . | . | -4
> Fc1ccc(CN2CCCN(c3ccc4c(c3)OCCO4)CC2)cc1
    104 | 98 | 99 | 3
> Cc1nn(-c2ccccc2Cl)c(Cl)c1C=Nc1cc(Cl)ccc1C#N
    . | 99 | 80 | -15

Additional entries:
SMILES	GIV Gai3 FP	Sa growth inh	Sa growth inh second temp	HCMV UL50-53 inh
Fc1ccc(-c2nn3c(CSc4ccccc4)nnc3s2)cc1	97	.	.	-11
COc1ccc(C2c3c(oc4ccc(F)cc4c3=O)C(=O)N2Cc2ccc3c(c2)OCO3)cc1 (stereo unspecified)	101	85	93	-8
O=C1CCCN1c1ccc(S(=O)(=O)NCCc2ccccc2)cc1	100	91	84	-27
O=C(NCCN1CCCC1)c1ccc2c(c1)OCCO2	100	92	99	0
NC(=O)CSC1=N/C(=C\c2ccco2)C(=O)N1c1ccc(OC(F)F)cc1	.	70	83	-59
O=C1COc2ccc(C(=O)CSc3nc4cc(Cl)ccc4c(=O)n3C3CCCC3)cc2N1	.	72	70	-3
Cc1cc(C)c(NC(=O)CSc2cn(CC(=O)N3CCOCC3)c3ccccc23)c(C)c1	111	92	82	.
COc1ccc(/C=C2\SC(=S)N(CCC(=O)NCCO)C2=O)cc1	102	99	84	-61
CCOC(=O)c1ccc(NC(=O)CCc2c(C)nc3c(-c4ccc(F)cc4)c(C)nn3c2C)cc1	101	96	93	-26
CC(C)NC(=O)c1ccc(Cl)c(S(=O)(=O)Nc2ccc(Cl)cc2)c1	.	104	71	-26
CN(Cc1ccccc1)c1nc2c(S(=O)(=O)c3cccc(Cl)c3)nnn2c2ccsc12	101	87	91	.
CCOC(=O)c1noc2nc(C)n(Cc3ccc(C(=O)OC)cc3)c(=O)c12	112	.	.	6
COc1ccc(OCc2nnc(SCc3cc(=O)n4ccsc4n3)n2Cc2ccco2)cc1	.	86	84	-4
Cc1ccc2[nH]c3c(=O)n(CC(=O)N(CC(C)C)CC(C)C)ncc3c2c1	107	93	84	-33
COc1ccccc1C(=O)Oc1ccc2ccc(=O)oc2c1	.	109	100	-24
O=C(O)C1CC=C(Cl)CC1C(=O)Nc1nccs1 (stereo unspecified)	105	.	.	-7
O=C(c1ccc(Cn2c(SCc3ccc(F)cc3Cl)nc3ccncc32)cc1)N1CCCC1	101	.	.	-14
Cc1ccc2c(=O)cc(C(=O)Nc3ccc(S(=O)(=O)N4CCCC(C)C4)cc3)oc2c1C (stereo unspecified)	97	108	91	-5
NC(=O)CC(c1ccccc1)c1ccc2c(c1)OCO2 (stereo unspecified)	105	101	84	2
CC(C)(C)NC(=O)c1ccc2c(c1)C(=O)N(C1CCCCC1)C2=O	108	100	92	-16
Cc1nnc(C)n1-c1ccc(C(=O)Nc2cccc(Br)c2)cc1	108	120	94	.
Cc1cccc(C)c1NC(=O)CCSCCc1ccccn1	102	107	85	.
Brc1cccc(OCCOc2cccc(-n3cnnn3)c2)c1	.	98	91	-9
O=C(CNc1ccc2c(c1)oc1ccccc12)c1ccc2c(c1)OCO2	106	103	107	4
COC(=O)CSc1ncn(-c2nc(N(C)C)nc(N(C)C)n2)n1	100	.	.	-8

Going on with the list.
SMILES	GIV Gai3 FP	Sa growth inh	Sa growth inh second temp	HCMV UL50-53 inh
CCCOC(=O)c1cccc(NC(=O)c2c(-c3ccccc3Cl)noc2C)c1	102	99	96	.
COc1ccc(/C=C(/C#N)c2nc(-c3ccc(-c4ccccc4)cc3)cs2)cc1OC	114	107	102	-11
O=C(c1ccco1)N1CCN(c2nc3ccc(Cl)cc3s2)CC1	96	128	85	.
COc1c(Cl)cc(Cl)cc1/C=C(\C#N)c1nc2ccccc2[nH]1	46*	115	84	.
c1ccc(NC2=NCCC2)cc1	98	88	87	-8
CCC12CN3CC(CC)(CN(C1)C3C1CCCCC1)C2=O (stereo unspecified)	100	.	.	-9
O=C(O)CC1(CC(=O)NCc2cccnc2)CCCCC1	109	103	96	-2
COC(=O)c1ccccc1N(C)C(=O)c1cc(OC)c(OC)c(OC)c1	108	101	94	-25
CCCNC(=O)COc1ncnc2ccccc12	.	86	90	-12
CCc1cc(=O)oc2cc(C)c3c(-c4ccc(F)cc4)coc3c12	102	115	87	-10
OCCOCCNCc1ccc(-c2ccc(F)cc2)o1	104	.	.	-21
C/C(=N\N1C(=O)c2ccccc2NC1c1ccccc1)c1ccccc1O (stereo unspecified)	114	102	95	-2
O=C(CN1CCCN(Cc2ccccc2F)S1(=O)=O)Nc1ccc(F)c(Cl)c1	99	94	87	.
O=C(c1ccc(N2CCCC2)c(NC(=S)NC2CCCC2)c1)N1CCCC1	101	106	101	7
O=C(O)c1ccccc1SC1CC(=O)N(Cc2ccccc2)C1=O (stereo unspecified)	102	77	70	-27
O=C(Nc1cc2c(cc1C(=O)c1ccccc1Cl)OCCO2)c1ccc(Br)cc1	103	103	92	-28
Cc1cccc(CN2C(=O)C(O)(CC(=O)c3ccco3)c3ccccc32)c1 (stereo unspecified)	109	115	94	-41
O=C(NCC1CCN(Cc2ccc(Cl)cc2)CC1)c1ccc(CN2C(=O)CCn3nccc32)cc1	104	.	.	6
CCN(CC)C(=O)CSC1=C(C#N)C(c2ccccc2F)C(C(=O)Nc2ccccc2)=C(C)N1 (stereo unspecified)	99	94	82	-20
CS(=O)(=O)/N=C(\N)c1ccncc1	97	103	91	-14
CCOc1ccc(NC(=O)C2C3C=CC4(O3)C2C(=O)N(C(C)C)C4C(=O)NC2CCCCC2C)cc1 (stereo unspecified)	105	112	83	.
CCc1ccc(CNC)cc1	.	106	94	-1
N#CC(c1ccc(Cl)cc1)c1c(Cl)cc(-n2ncc(=O)[nH]c2=O)cc1Cl (stereo unspecified)	100	85	61	-32&20
CNC(=O)NC(=O)C(c1ccccc1)N1CCCC(c2nnc3ccc(C(F)(F)F)cn23)C1 (stereo unspecified)	.	98	90	-8
CC1(C)CC(=O)C2=C(C1)OC(N)=C(C#N)C2c1ccccc1 (stereo unspecified)	104	103	97	-4

Continuation.
SMILES	GIV Gai3 FP	Sa growth inh	Sa growth inh second temp	HCMV UL50-53 inh
c1ccc(OCCCn2nnc(-c3ccncc3)n2)cc1	109	111	94	1
Cc1ccc(CN(C(=O)C(C)C)c2nc3nc(C)c(C)c(=O)n3[nH]2)cc1	106	.	.	-26
CC1=C(C(=O)Nc2ccccc2)C(c2ccc3c(c2)OCO3)C2=C(CC(C)(C)CC2=O)N1 (stereo unspecified)	.	88	80	-16
CCOC(=O)c1c(C)nc(-c2ccccc2)nc1NC(=O)CC	103	96	76	-3
CC(=O)Nc1ccccc1C(=O)NCc1ccco1	97	90	89	5
COc1cccc(NC(=O)C2CCN(S(=O)(=O)c3cn(C)cn3)CC2)c1	109	.	.	-28
COc1cccc(NC(=O)c2nc(Nc3ccccc3)c3ccccc3n2)c1	106	.	.	-19
CCOC(=O)c1sc(=S)n2c1[nH]c(=O)c1ccc(C(=O)OC)cc12	101	87	70	1
COC(=O)c1sccc1S(=O)(=O)N1CCN(c2ccc(C)cc2C)CC1	103	100	70	.
O=c1c(-c2ccc(Cl)cc2Cl)c(C(F)(F)F)oc2cc(O)ccc12	107	94	64	.
O=S(=O)(c1cccc2nsnc12)N1CCN(c2cc(-c3ccc(F)cc3)ncn2)CC1	100	.	.	-53
COc1ccnc(CS(=O)c2nc3cc(OC(F)F)ccc3[nH]2)c1OC (stereo unspecified)	.	99	92	-79
COc1ccc(-n2ncc3c2ncn2nc(COc4ccc(Cl)cc4)nc32)cc1	106	100	94	6
O=c1[nH]ccn(-c2ccccc2)c1=O	103	102	93	.
COc1ccc(NC(=O)c2nnc(C(=O)NCCc3c[nH]c4ccc(OC)cc34)s2)cc1	104	.	.	12
CCn1c(-c2ccco2)nn(CN(C)Cc2cccc(Cl)c2)c1=S	.	92	94	-28
CC(O)Cn1c(Br)nc2c1c(=O)n(C)c(=O)n2C (stereo unspecified)	100	94	102	2
CCS(=O)(=O)c1ncc(Cl)c(C(=O)Nc2ccc(S(=O)(=O)N3CCOCC3)cc2)n1	101	.	.	-32
CC(Sc1cccc[n+]1[O-])C(=O)Nc1cc(C(F)(F)F)ccc1Cl (stereo unspecified)	.	113	82	-22
CO/N=C1\CCCc2c(C(=O)NN)sc(SC)c21	108	82	49	-66
CCCn1c(=NC(=O)c2cc3ccccc3o2)c(C(=O)OCC)cc2c(=O)n3ccccc3nc21	103	96	85	-28
Cc1ccc(-c2nc3ccccc3s2)cc1NC(=O)COc1ccccc1	105	86	83	-58
